VDR inh = vitamin D3 receptor (human) inhibition | P11473 | VDR-SRC2-3 peptide fluorescence polarization, 2 h | Potency, µM, for the others: max response, negative = inhibition, hits mostly inhibitors | 400,000 tested, 0.93% active; active = well fitted inhibition curve with a large enough effect; inconclusive = small, poorly fitted or top-dose-only effect, or another doubt; inactive = no such curve, though single readings can be large or run the other way; also: series mostly up to about 120 µM
Target sequence (P11473 whole entry, looked up): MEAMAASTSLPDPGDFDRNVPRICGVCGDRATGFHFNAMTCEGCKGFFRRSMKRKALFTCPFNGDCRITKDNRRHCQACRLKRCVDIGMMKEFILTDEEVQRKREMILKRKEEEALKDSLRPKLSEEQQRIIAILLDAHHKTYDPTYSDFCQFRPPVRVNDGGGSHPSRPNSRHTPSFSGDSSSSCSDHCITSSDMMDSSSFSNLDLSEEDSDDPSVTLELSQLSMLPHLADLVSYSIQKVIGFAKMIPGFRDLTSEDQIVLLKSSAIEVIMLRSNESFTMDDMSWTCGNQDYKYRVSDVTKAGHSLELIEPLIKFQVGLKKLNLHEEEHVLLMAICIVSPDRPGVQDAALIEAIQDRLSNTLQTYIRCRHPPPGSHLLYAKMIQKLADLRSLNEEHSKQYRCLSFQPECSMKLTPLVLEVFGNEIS
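After 23 nl compound addition and a short centrifugation, plates sat for 2 hours at ambient temperature; polarization of fluorescence then indicated loss of VDR binding to peptide SRC2-3.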
* hit, by the source's call; ? = inconclusive; & = joins results of further samples; ! = repeats disagree. % is scaled to controls: 0 for no effect and ±100 for the full control effect; potency is read from the fitted curve at half-maximal effect.

SMILES | VDR inh
CCNC(=O)CSc1nnc(-c2ccccc2)n1-c1ccc(OCC)cc1 | 9%
Cc1nn(CCCC(=O)Nc2cc(Oc3ccc(F)cc3)cc([N+](=O)[O-])c2)c(C)c1[N+](=O)[O-] | -12%
COC(=O)CSc1nc2ccccn2c(=O)c1C=O | 14%
CCOC(=O)CCn1cnc2ccc([N+](=O)[O-])cc2c1=O | 13%
COc1cc(C)c(C)cc1S(=O)(=O)Nc1cccc(-c2ccc(N3CCOCC3)nn2)c1 | 4%
CCOC(=O)c1cccc(NC(=O)C2CCN(c3nnc(C)c4c(C)n(-c5ccccc5)nc34)CC2)c1 | 7%
O=C(c1ccco1)N1CCN(C(=O)c2cccc3c2C(=O)N(C2CCCCC2)C3)CC1 | -14%
COc1cccc(C2CC(c3cccc(C)c3)n3ncnc3N2)c1 (centres undefined) | -13%
O=C(Nc1ccccc1)OCCNC(=O)c1cccc(Cl)c1 | -11%
Cc1ccc(C(=O)N/C(=C\c2ccc(C)o2)C(=O)O)cc1 | 5%
CCOC(=O)N1CC=C2C(C#N)=C(N)C(C#N)(C#N)[C@H](c3ccsc3)[C@H]2C1 | ?
CCOc1ccc(-c2nnc(-c3cccs3)o2)cc1OCC | -30%
O=C(COC(=O)/C=C/c1ccc([N+](=O)[O-])cc1)NCc1ccco1 | -2%
C[C@H](CO)N1C[C@H](C)[C@@H](CN(C)S(=O)(=O)c2ccccc2)Oc2c(NC(=O)Nc3ccc4c(c3)OCO4)cccc2C1=O | 2%
CSc1nc(-c2ccco2)nn1S(=O)(=O)c1ccc(C)cc1 | ?
CC1=CC2=NC(=O)/C(=C\c3cccn3CCOc3ccccc3C)C(=N)N2O1 | -10%
CCC1(c2ccc(F)cc2)NC(=O)N(CC(=O)Nc2ccc(S(N)(=O)=O)cc2)C1=O (centres undefined) | 4%
COc1ccccc1OCCNC(=O)c1cc(C2CC2)nc2c1cnn2C(C)C | 0%
CCN(CC)CCN(C(=O)c1ccco1)c1nc2c(C)cccc2s1 | 18%
CSc1nsc(SCC(=O)Nc2ccccc2C(=O)O)n1 | 10%
Cc1ccc(-c2nc3ccccn3c2Nc2ccccc2C)s1 | -22%
NS(=O)(=O)c1cccc(NC(=O)CSc2nnnn2-c2ccccc2)c1 | -17%
Clc1cccc(-c2ccc3ncnc(NCc4cccnc4)c3c2)c1 | -33%
Cc1ccc(S(=O)(=O)N2CCN(C(=O)c3ccc(-n4cncn4)c([N+](=O)[O-])c3)CC2)cc1 | -16%
O=C(Nc1nc2ccccc2n1CCN1CCOCC1)c1ccc(COc2ccccc2Br)o1 | -8%
More structures:
SMILES | VDR inh
CCCCOP(=O)(c1ccc(N(C)C)cc1)C(O)c1ccc(OC)c(OC)c1 (centres undefined) | 11%
Cc1cc(OCCCCn2ccnc2)cc(C)c1Cl | -14%
Cc1cccc(NC(=O)c2ccc3c(c2)CCN3S(=O)(=O)c2ccccc2)c1C | -7%
CN(CC(=O)NCC(=O)Nc1ccc(F)c(F)c1F)C1CCS(=O)(=O)C1 (centres undefined) | -3%
O=C(CNC(=O)c1ccccc1F)NC1CC1 | 11%
CCOC(=O)c1ccc(NC(=O)c2cc(S(=O)(=O)N3CCOCC3)cn2C)cc1 | -6%
COC(=O)C1=C(N)Oc2cc(N(C)C)ccc2C1c1ccccc1OC (centres undefined) | 4%
CC(C)(C)c1ccc(NC(=O)CSc2n[nH]c(=O)n2-c2cccnc2)cc1 | -30%
CCN(CC)S(=O)(=O)c1ccc2c(c1)nc(CCC(=O)Nc1ccccc1Cc1ccccc1)n2CC | 11%
CC1CCN(C(=O)c2cc3nc(-c4ccccc4)cc(-c4ccccc4)n3n2)CC1 | 3%
Cc1ccc(OCC(=O)Nc2nnn(C)n2)c(C)c1 | -22%
O=C(C[C@@H]1C/C=C\CCC(=O)OC[C@H](Cc2ccccc2)NC1=O)N[C@@H](CO)Cc1ccccc1 | -9%
O=C(CCl)Nc1ccccc1C(=O)c1ccccc1 | -2%
N#C/C(=C1\C(=O)Nc2c(Cl)cc(Cl)cc21)c1nnc2n1CCCCC2 | 28µM*
Cc1ccccc1CNC(=O)C(=O)NCCC1CCCCN1S(=O)(=O)c1cccs1 (centres undefined) | -28%
CCOC(=O)CNC(=O)C(CO)NC(=O)OCc1ccccc1 (centres undefined) | -6%
Cc1c(CN2CCC(CO)(CC3CCCCO3)CC2)cnn1C (centres undefined) | 2%
Cc1ccc(C)c(S(=O)(=O)N2CCN(CC(=O)Nc3ccc4c(c3)OCCO4)CC2)c1 | 9%
Cc1cc(OCC(=O)NC(Cc2ccc(Cl)cc2)C(=O)O)c2c(C)cc(=O)oc2c1 (centres undefined) | -8%
Cc1c(C(c2ccc(C(=O)O)cc2)c2c(C)n(C)n(-c3ccccc3)c2=O)c(=O)n(-c2ccccc2)n1C | -2%
C/C(=N\OC(=O)c1cccc(Cl)c1)c1sc(C)nc1C | 12%
O=C(NCC1CCCN1S(=O)(=O)c1cccs1)c1c(F)cccc1F (centres undefined) | 11%
CCOc1ccc(CCNC(=O)c2cc(C)nn2-c2ccccc2)cc1 | 7%
CCOC(=O)c1sc(Nc2cccc(Cl)c2)nc1C | -25%
COc1ccc(CN2CCc3cc(OC)c(OC)cc3C2)cc1O | 2%

The list goes on, overlapping the part above by five compounds.
SMILES | VDR inh
C/C(=N\OC(=O)c1cccc(Cl)c1)c1sc(C)nc1C | 12%
O=C(NCC1CCCN1S(=O)(=O)c1cccs1)c1c(F)cccc1F (centres undefined) | 11%
CCOc1ccc(CCNC(=O)c2cc(C)nn2-c2ccccc2)cc1 | 7%
CCOC(=O)c1sc(Nc2cccc(Cl)c2)nc1C | -25%
COc1ccc(CN2CCc3cc(OC)c(OC)cc3C2)cc1O | 2%
CCOc1ccc2nc(NC(=O)Cc3cccs3)sc2c1 | -2%
COC(=O)CN1C(=O)Nc2ccc(Cl)cc2C1c1ccccc1 (centres undefined) | -16%
Cc1ccc(NC(=O)CSc2nnc(C3CCCCC3)n2N)cc1F | -2%
Cn1c(=O)c2[nH]c(C3CCC3)nc2n(C)c1=O | -8%
Oc1ccc(/C=N\Nc2nncc(-c3ccccc3)n2)cc1 | -12%
O=C(Nc1nnc(-c2ccccc2)s1)c1ccccc1F | -1%
Cc1cc(NC(=O)Nc2ccc(N(C)C)cc2)c2cc(F)cc(F)c2n1 | 18µM*!
CCCN(CCC)CCCNc1ccc2nnc(-c3ccc(F)cc3)n2n1 | -15%
N#Cc1c(Cl)nc(-c2ccncc2)nc1-c1ccccc1 | -18%
S=c1[nH]c2ccccc2n2cccc12 | -5%
COCCN(C(=S)Nc1ccc(C)cc1)C(C)c1ccco1 (centres undefined) | 8%
COc1ccc(S(=O)(=O)NCCc2sc(C)nc2C)cc1 | -7%
CC1(C)CCc2cc(-c3ccn(S(=O)(=O)c4ccccc4Cl)n3)ccc2O1 | -8%
Cc1cc(C(=O)NC2CCCCC2)on1 | -11%
Cn1c(=O)c2c(nc(SCC(=O)Nc3ccccc3F)n2Cc2ccc(Cl)cc2)n(C)c1=O | -4%
CNS(=O)(=O)c1cn(CC(=O)Nc2cccc(C(F)(F)F)c2)cc1S(=O)(=O)NC | 7%
COc1ccc(C2=NOC(C)(c3sc(-c4ccc(Cl)cc4)nc3C)C2)cc1 (centres undefined) | -18%
CCCCOC(=O)c1ccc(OC(=O)c2sc3ncn(Cc4ccccc4Cl)c(=O)c3c2C)cc1 | 19%
CN(C)CCCNC(=O)C(=O)Nc1ccc2c(c1)N(S(=O)(=O)c1cccs1)CCC2 | 6%
c1ccc2c(c1)CCN(C1=Nc3cccc4cccc1c34)C2 | 4%
Cc1cc(C)n2c(Nc3ccccc3C)c(-c3cccs3)nc2n1 | ?
Cc1ccc(NC(=O)C2CCCN(S(=O)(=O)c3cnc[nH]3)C2)cc1C (centres undefined) | -3%
O=C(CN(Cc1ccco1)C(=O)c1ccc([N+](=O)[O-])cc1)Nc1ccccc1C(F)(F)F | ?
N#Cc1ccc(OCC(=O)NCC2COc3ccccc3O2)cc1 (centres undefined) | -15%
CN(CC(=O)Nc1ccccc1Br)C(=O)CNC(=O)c1ccco1 | -15%

6 compounds picked at random from those above:
SMILES | VDR inh
Cc1cc(C(=O)NC2CCCCC2)on1 | -11%
COCCN(C(=S)Nc1ccc(C)cc1)C(C)c1ccco1 (centres undefined) | 8%
CCCCOC(=O)c1ccc(OC(=O)c2sc3ncn(Cc4ccccc4Cl)c(=O)c3c2C)cc1 | 19%
CN(CC(=O)Nc1ccccc1Br)C(=O)CNC(=O)c1ccco1 | -15%
O=C(Nc1nnc(-c2ccccc2)s1)c1ccccc1F | -1%
N#Cc1ccc(OCC(=O)NCC2COc3ccccc3O2)cc1 (centres undefined) | -15%

Next entries
SMILES | VDR inh
COc1ccc(C(=O)NC(C)(C)C)cc1S(=O)(=O)N1CCCC1 | 10%
COc1ccc(CN2CC(C(=O)NCCCN3CCOCC3)CC2=O)cc1 (centres undefined) | 5%
O=C(COC(=O)c1ccc2c(c1)OCCO2)Nc1ccc(F)cc1 | 3%
O=C(Nc1cccc(S(=O)(=O)N2CCOCC2)c1)c1cn(-c2ccccc2)nc1-c1ccccc1 | -8%
Cc1nc2ccccc2c(=O)n1NC(=O)c1ccccc1[N+](=O)[O-] | -4%
CN(Cc1ccccc1)CC(O)COc1ccc(CNCc2nccn2C)cc1 (centres undefined) | 18%
CCC(C)(C)C1CCC2(CC1)NC(=O)N(CC(=O)NCCc1ccc(OC)c(OC)c1)C2=O (centres undefined) | -11%
O=S(=O)(Nc1cccnc1)c1cccc(Cl)c1 | -9%
CN1CCC(N(C)S(=O)(=O)c2ccc(C(C)(C)C)cc2)CC1 | 1%
COc1ccc(S(=O)Cc2ccc(C(=O)N3CCN(C(=O)c4ccco4)CC3)o2)cc1 (centres undefined) | 3%
Cc1ccc2c(C(=O)CSc3ccccc3)c(C)[nH]c2c1 | -4%
O=C(CSC1=NS(=O)(=O)c2ccccc2N1)Nc1cccc(F)c1 | -2%
O=C(CNC(=O)c1ccco1)N=Nc1c(O)n(CCc2ccccc2)c2ccccc12 | -3%
COc1ccc(N(C(=O)c2ccco2)S(=O)(=O)c2cc(Cl)c(Cl)cc2Cl)cc1 | -10%
CCSc1nnc(NC(=O)CSC2=NCCS2)s1 | -3%
COc1cc(C=O)ccc1OCCCOc1ccccc1C(=O)O | 10%
CCC(=O)Nc1c(C)c(CC)nc2ccccc12 | 0%
Cc1ccc(-c2n[nH]c(=S)n2/N=C/c2cccn2C)cc1 | 6%
CC(Sc1nc2ccccc2s1)C(=O)NCc1ccc2c(c1)OCO2 (centres undefined) | -21%
Cc1nnc(SCC(=O)NC2CCCC2)n1-c1ccccc1 | 2%
COc1ccc(C)cc1NC(=O)COC(=O)c1ccc2c(c1)OCO2 | -8%
CCc1cccc(C)c1NC(=O)c1cc(S(=O)(=O)N2CCOCC2)cn1C | 3%
Cc1cc(O)c(Sc2ccccc2)c(=O)o1 | 5%
CCOC(=O)c1c(NC(=O)CN2CCCc3ccccc32)sc(C)c1CC | -2%
CCc1nc(SCc2ccccc2C)n[nH]1 | -3%
Other compounds follow:
SMILES | VDR inh
CCN1C(=O)N[C@@H](c2ccccc2)C1=O | -1%
Cn1c(-c2ccccc2)cc(=O)n1-c1ccccc1 | 2%
CN(C)C(CNC(=O)c1cc2ccccc2o1)c1ccco1 (centres undefined) | 3%
COc1ccc(C(=O)OCC(=O)N2C(C)CCCC2C)cc1S(=O)(=O)N1CCOCC1 (centres undefined) | -1%
O=C(CCCN1C(=O)C(c2ccccc2)Oc2cccnc21)NCc1ccccc1Cl (centres undefined) | 12%
O=c1[nH]c(N2CCc3ccccc32)nc2c1CCCC2 | 0%
Cc1nc(C)c(C(=O)C2=C(O)C(=O)N(CCN3CCOCC3)C2c2ccco2)s1 (centres undefined) | -2%
CCCN(CCC)CCCNC(=O)c1cn(CC)c2ccc(S(=O)(=O)N(C)C3CCCCC3)cc2c1=O | 3%&-4%
O=C(Nc1nc(-c2ccccn2)cs1)c1ccc(Br)s1 | -1%
Cc1ccc(C2=CC(=O)CC(C)(C)C2)cc1 | -3%
CC(=O)C1CCCN(C(=O)c2ccc3nc(Cc4cccc(Cl)c4)oc3c2)C1 (centres undefined) | -1%
CC(C)NC(=O)CN(C(=O)CCC(=O)Nc1ccccn1)c1ccc(F)c(Cl)c1 | -10%
CCOC(=O)C1CCN(C(=O)CCn2c(=O)[nH]c3ccsc3c2=O)CC1 | 8%
S=c1[nH]nc(Nc2ccccc2)s1 | -1%
O=C(Nc1ccc2c(c1)CCC2)c1cccc(S(=O)(=O)N2CCN(c3ccccc3)CC2)c1 | 18%
Cn1c(-c2ccccc2)cnc1NCc1ccccc1O | -17%
O=C(O)c1ccccc1-c1cc2ccccc2[nH]1 | -11%
CCN(CC)c1ccc(S(=O)(=O)N2CCOCC2)cc1NC(=O)CSc1nncn1C | 14%
O=C1C2C(C(=O)N1/N=C/c1ccc(N3CCCCC3)o1)C1C=CC2C12CC2 (centres undefined) | 89µM*
CCC(C)NS(=O)(=O)c1ccc(NC(C)=O)cc1 (centres undefined) | -6%
CCCCC(=O)C1CCN(Cc2ccccc2)CC1 | 3%

High-throughput results as filed in PubChem.

The list is partial. The share of hits here may be higher or lower than overall.
